# HSV augment = increases HSV replication in cells; HSV replication augmentation in cells, fold increase; maximum fold increase; hit rate 0.005% among 220,000;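 active = peak rise of 1.5-fold or more in the series; tested in PC3 cells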;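 also: first round at 10 µM; read as green reporter fluorescence; hits show the peak of a series up to 25 µM; 1 = signal of infected wells without compound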
# RGS16-Gao HTS = modulates binding between human RGS16 and Galphao | O15492+P09471 | bead-based flow cytometry RGS16-Galphao binding, fluorescence; actives lie on both sides | binding response (% of control), % at 10 µM | hit rate 0.38% among 220,000 | AID 1441;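 active = below 25% or above 175%, edge rows of some plates excepted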;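 also: Galphao activated by GDP with aluminum fluoride before binding; 100% = wells without compound and 0% = beads without RGS; some results beyond the cut were filed as inactive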
# Target sequence (O15492 whole entry, looked up): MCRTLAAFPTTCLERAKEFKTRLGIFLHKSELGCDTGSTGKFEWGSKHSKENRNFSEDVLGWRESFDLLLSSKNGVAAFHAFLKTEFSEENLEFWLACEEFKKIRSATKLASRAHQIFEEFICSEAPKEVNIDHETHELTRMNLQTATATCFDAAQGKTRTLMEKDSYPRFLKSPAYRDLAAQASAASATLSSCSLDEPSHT
# Target sequence (P09471 whole entry, looked up): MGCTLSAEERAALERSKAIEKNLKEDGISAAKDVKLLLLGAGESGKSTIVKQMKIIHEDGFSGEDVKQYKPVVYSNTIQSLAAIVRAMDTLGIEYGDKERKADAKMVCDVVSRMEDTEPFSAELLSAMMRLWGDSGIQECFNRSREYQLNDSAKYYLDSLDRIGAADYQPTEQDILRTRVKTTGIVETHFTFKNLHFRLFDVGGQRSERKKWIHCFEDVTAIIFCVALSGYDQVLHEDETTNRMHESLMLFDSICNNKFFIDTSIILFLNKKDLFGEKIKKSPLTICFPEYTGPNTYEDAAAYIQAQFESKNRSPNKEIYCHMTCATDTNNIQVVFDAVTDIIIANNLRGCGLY
# GALR2 ag = agonists of human galanin receptor 2 (GALR2). O43603. GALR2-expressing cells, agonist activation read-out. activation, %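 (tested at 5 µM)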. hit rate 0.48% among 140,000. AID 803;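 active = above mean plus 3 SD of all compounds, about 5% in these data, not always enough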;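 also: 0% = vehicle buffer wells and 100% = reference agonist at full effect; tested in CHO reporter cells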
# Target sequence (O43603 whole entry, looked up): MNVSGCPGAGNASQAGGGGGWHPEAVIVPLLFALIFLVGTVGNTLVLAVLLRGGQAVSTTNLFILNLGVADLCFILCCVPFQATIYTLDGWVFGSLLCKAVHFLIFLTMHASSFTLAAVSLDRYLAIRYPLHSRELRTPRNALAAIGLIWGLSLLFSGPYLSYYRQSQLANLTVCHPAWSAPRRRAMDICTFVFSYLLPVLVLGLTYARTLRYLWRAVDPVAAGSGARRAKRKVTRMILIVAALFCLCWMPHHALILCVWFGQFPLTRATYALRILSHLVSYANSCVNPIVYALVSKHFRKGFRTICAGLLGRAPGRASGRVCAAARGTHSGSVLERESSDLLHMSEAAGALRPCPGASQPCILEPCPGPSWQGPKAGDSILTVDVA
# Insulin prom inh = TRM-6 insulin promoter activity inhibition. TRM-6 cells (human fetal islet line), insulin promoter-eGFP reporter, imaging; reporter expression induced with tamoxifen. inhibition, % at 2 µM. hit rate 0.9% among 130,000;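 active = inhibition above the mean plus 3 SD, with well images judged a real hit on visual review, cut at about 60% in these data, passing the limit was not always enough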
# PKD1 kinase inh = blocks activity of human protein kinase D1. Q15139. PKD1 kinase fluorescence polarization assay. inhibition, %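 (about 10 µM by stock and volumes)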. hit rate 0.056% among 200,000;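 active = inhibition of 50% or more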;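 also: controls were vehicle for no effect and a reference inhibitor for full effect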
# Insulin prom inh cell count = recorded beside Insulin prom inh, whose call it bears; normalized cell count, %; measured here: cell count, toxicity; reference of the scale not given here;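 cells exposed to compound for 48 h; stained nuclei by imaging scaled within each plate; lower means fewer cells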
# HSV augment primary fold = second read-out of HSV augment, no call of its own (marks repeat the call); fold increase; compound at 10 µM; measured here: primary screen fold increase 10 uM; tested in PC3 cells;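 GFP signal in the first replicate; 1 = infected wells without compound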
# Numbers without * were called inactive; i = inactive; . = no result given. Rows were taken by chance; overall some 1.3% were active at least once.
SMILES,HSV augment,HSV augment primary fold,RGS16-Gao HTS,GALR2 ag,Insulin prom inh,Insulin prom inh cell count,PKD1 kinase inh
Cc1cccc(OCCn2nc(C(=O)O)c3ccccc3c2=O)c1,i,0.96,97,-2.1,33,152,3
CCCCC1=NN(C(=O)c2ccncc2)C(O)(C(F)(F)F)C1 (stereo unspecified),i,0.98,103,.,.,.,.
Cn1c(=O)c2[nH]cnc2n(-c2ccccc2)c1=O,i,0.7,103,-0.4,62,129,0
Cc1ccc(NC(=S)N(CCCN2CCOCC2)Cc2cccs2)c(C)c1,i,0.99,98,0.2,-32,68,-1
O=C(Cc1ccccc1)N1CCC(C(=O)N2CCN(c3ccc(F)cc3)CC2)CC1,i,0.92,71,0.6,-143,88,-9
Cc1ccc(C(=O)O)cc1S(=O)(=O)N1CCCC1,i,0.88,94,-2.3,62,77,-3
O=C(O)c1ncsc1-c1ccccc1,i,0.99,88,.,.,.,.
Nc1c(C(=O)NCc2ccco2)c2nc3ccccc3nc2n1CCc1ccccc1,i,1.2,52,1.4,-64,96,-1
COC(=O)c1sc(N)c(C(=O)OC)c1CSc1nnnn1C,i,1.1,102,-2.7,-16,97,-8
Cc1cc(=O)oc2cc(NC(=O)CCC(=O)O)ccc12,i,0.86,102,-1.2,-30,100,-1
Cc1cccc(C)c1NC(=O)C1NC(=O)CC1c1ccccc1 (stereo unspecified),i,1.3,105,-1.6,.,.,-12
CC(C)(C)c1nn2cnnc2n(/N=C/c2ccc(O)cc2)c1=O,i,0.94,103,-0.5,-23,130,-1
CCN(CC)S(=O)(=O)c1cc(C)ccc1SC,i,1,104,0.7,-27,173,-1
Cc1cc(N(CN2CCCC2=O)C(=O)c2ccc(OC(C)C)cc2)no1,i,1.1,104,.,.,.,-6
COCCN(C(=O)CNC(=O)c1ccco1)C(C(=O)NC1CCCCC1)c1cccc(OC)c1 (stereo unspecified),i,0.9,106,-0.2,6,114,-5
CC(C)CC(NC(=O)C(COCc1ccccc1)NC(=O)OC(C)(C)C)C(=O)NN (stereo unspecified),i,1,102,.,-40,91,-3
CCC(C)(C)NC(=O)C(c1ccc(OC)cc1)N(CCOC)C(=O)CCC(=O)Nc1nccs1 (stereo unspecified),i,0.99,104,.,.,.,4
O=S(=O)(Nc1ccccn1)c1cccs1,i,1.1,99,.,.,.,-2
O=C(NCc1cccc(C(F)(F)F)c1)C1CC(c2cccc(F)c2)=NO1 (stereo unspecified),i,1.1,106,.,.,.,.
CCCc1ccc(C(=O)NC(=O)c2ccccc2O)cc1,i,0.87,32,.,.,.,.

# Among those listed so far, these contain fluorine:
SMILES,HSV augment,HSV augment primary fold,RGS16-Gao HTS,GALR2 ag,Insulin prom inh,Insulin prom inh cell count,PKD1 kinase inh
CCCCC1=NN(C(=O)c2ccncc2)C(O)(C(F)(F)F)C1 (stereo unspecified),i,0.98,103,.,.,.,.
O=C(Cc1ccccc1)N1CCC(C(=O)N2CCN(c3ccc(F)cc3)CC2)CC1,i,0.92,71,0.6,-143,88,-9
O=C(NCc1cccc(C(F)(F)F)c1)C1CC(c2cccc(F)c2)=NO1 (stereo unspecified),i,1.1,106,.,.,.,.

# The results go on.
SMILES,HSV augment,HSV augment primary fold,RGS16-Gao HTS,GALR2 ag,Insulin prom inh,Insulin prom inh cell count,PKD1 kinase inh
COc1ccc(C2(CNC(=O)/C=C\c3ccco3)CCCC2)cc1OC,i,0.81,89,-2.5,28,113,6
COC(=O)[C@@]1(Cc2ccccc2)[C@@H]2C(=CC(=O)[C@H]2CC(=O)C(=O)N(C)C)CN1C(=O)c1ccccc1,i,0.46,99,-0.5,-10,97,-3
Cc1ccc(C(=O)Oc2cccnc2)cc1[N+](=O)[O-],i,1,113,-0.1,-33,118,-8
Oc1ccc2ccc3[nH]cnc3c2c1,i,0.91,76,.,.,.,.
C=CCNCCCCOc1c(Cl)cc(C)cc1Br,i,0.79,103,0.1,-13,89,-1
COCCSc1nnc(NC(=O)C2CC(=O)N(c3ccccc3)C2)s1 (stereo unspecified),i,0.97,111,.,.,.,-2
COc1ccc(Br)cc1C(=O)NC(=S)Nc1cc(-c2nc3ccccc3[nH]2)ccc1C,i,0.81,100,1.6,.,.,-20
CCCC1=C(C(=O)OCC)C(c2ccco2)C(C#N)=C(N)O1 (stereo unspecified),i,1,111,.,.,.,1
COc1cc2nc(CN3CCOCC3)n(CC(=O)NCC(F)(F)F)c(=O)c2cc1OC,i,1.1,101,.,.,.,.
CC1(C)CC(=O)C=C(NCc2ccncc2)C1,i,0.88,104,-1.8,.,.,18
Nc1ccccc1C(=O)N(Cc1ccccc1)Cc1ccccc1,i,1,104,-2.8,-188,84,2
CCOC(=O)N1CCC(NC(=O)Cn2cc3c(n2)CCCC3)CC1,i,0.91,111,-1.8,60,67,2
O=C(c1cc(-c2ccccc2Cl)on1)N1CCN(C(=O)c2ccco2)CC1,i,0.96,100,-0.7,-26,120,5
COc1ccccc1CNC(=O)CCCOc1cc(=O)n(C)c2ccccc12,i,0.91,102,0.4,-13,119,-8
COc1ccc(CN(Cc2cc3cc4c(cc3[nH]c2=O)OCO4)C(=O)NC2CCCCC2)cc1,i,1,98,0.5,-3,109,-9
CSc1nnc(C)c(/C=C/NOCc2cccc(F)c2)n1,i,0.92,97,.,0,58,5
CCOc1ccc(-n2c(=O)[nH]cc(C(=O)N3CCc4ccccc43)c2=O)cc1,i,0.81,100,-0.3,-21,86,-2
O=C1CCC(c2ccccc2)=NN1Cc1c(F)cccc1Cl,i,0.95,103,.,26,97,8
COc1ccc2c(C)cc(SCC#N)nc2c1,i,1.1,108,-1.1,-167,161,4
CCOC(=O)c1c(C)n(C)c2ccc(O)c(CN3CCC(C)CC3)c12,i,0.95,115,-0.2,-51,47,-3

# 3 structures already listed, ordered by molecular weight, rising:
SMILES,HSV augment,HSV augment primary fold,RGS16-Gao HTS,GALR2 ag,Insulin prom inh,Insulin prom inh cell count,PKD1 kinase inh
Oc1ccc2ccc3[nH]cnc3c2c1,i,0.91,76,.,.,.,.
O=C1CCC(c2ccccc2)=NN1Cc1c(F)cccc1Cl,i,0.95,103,.,26,97,8
COc1ccc(C2(CNC(=O)/C=C\c3ccco3)CCCC2)cc1OC,i,0.81,89,-2.5,28,113,6

# (list continues)
SMILES,HSV augment,HSV augment primary fold,RGS16-Gao HTS,GALR2 ag,Insulin prom inh,Insulin prom inh cell count,PKD1 kinase inh
CC(=O)Nc1ccc(S(=O)(=O)C(C#N)c2nc3ccccc3nc2NCCO)cc1 (stereo unspecified),i,1.1,103,.,.,.,.
CCC(=O)Nc1ccc(C(=O)CSc2nc(N)cc(N)n2)cc1,i,0.88,101,.,.,.,.
CS(=O)(=O)N(Cc1ccccc1Cl)c1ccc(C(=O)NCc2ccccn2)cc1,i,1.1,102,0.1,-29,87,-1
O=C(/C=C/c1cccnc1)c1ccc(O)cc1,i,0.81,99,.,.,.,.
Cc1ccc(-c2noc(-c3c(C)noc3C)n2)cc1,i,0.97,105,.,.,.,.
O=C1C(Cl)=C(NCC2CCCO2)C(=O)N1C1CCCCC1 (stereo unspecified),i,0.92,94,-0.4,19,93,-1
O=C(c1sc2ccccc2c1Cl)N1CCN(c2ccccc2F)CC1,i,1,93,-0.9,.,.,7
COc1ccc(CCNC(=O)CSc2ccc3ccccc3c2)cc1OC,i,1.3,87,-0.7,.,.,4
COc1ccc(C(=S)N2CCCCC2)cc1Br,i,1,104,.,.,.,-1
CCOc1ccc(OCCN2C(=O)NC(Cc3c[nH]c4ccccc34)C2=O)cc1 (stereo unspecified),i,0.91,105,-2.1,i,47,2
O=C(CN(Cc1ccccc1)S(=O)(=O)c1ccccc1)N/N=C/c1ccc([N+](=O)[O-])cc1,.,.,106,-0.3,15,107,7
CCCCN(C)CCCNC(=O)c1cc(=O)[nH]c2ccc(S(=O)(=O)N3CCCCC3C)cc12 (stereo unspecified),i,0.94,99,.,29,87,-3
O=c1cc(CN2CCOCC2)c2c(ccc3ccccc32)o1,i,0.74,101,1.1,-33,102,-2
COc1ccc(CC(=O)n2[nH]c(=O)c3ccccc3c2=O)cc1OC,i,1.1,91,.,.,.,.
COc1ccc(N2C3=C(CC4=C2CCCC4=O)C(=O)CCC3)cc1,i,1.1,54,0.4,18,84,-5
C=CCn1c(SCC(=O)c2c(N)n(CCC)c(=O)n(C)c2=O)nnc1-c1ccncc1,i,0.95,104,.,.,.,-2
N#Cc1c(-c2ccccc2)ccn(Cc2ccc(Cl)cc2)c1=O,i,0.91,99,-0.1,-9,161,4
CC1Cc2ccccc2N1C(=O)C1CCN(S(=O)(=O)c2cccs2)CC1 (stereo unspecified),i,0.92,100,-4.3,.,.,-9
CCN(CC(=O)NCc1cccs1)c1ccc(S(=O)(=O)N2CCCC2)cn1,i,0.9,95,.,-33,110,-3
CCn1nc(C)c(NC(=O)CCCSc2nc(-c3ccco3)cc(C(F)(F)F)n2)c1C,i,0.97,112,-2.2,-6,100,-4

# In a second layout: results already given
# The line under a structure holds: HSV augment | HSV augment primary fold | RGS16-Gao HTS | GALR2 ag | Insulin prom inh | Insulin prom inh cell count | PKD1 kinase inh
> COc1ccc(C(=S)N2CCCCC2)cc1Br
→ i | 1 | 104 | . | . | . | -1
> CCOc1ccc(OCCN2C(=O)NC(Cc3c[nH]c4ccccc34)C2=O)cc1 (stereo unspecified)
→ i | 0.91 | 105 | -2.1 | i | 47 | 2
> O=C(CN(Cc1ccccc1)S(=O)(=O)c1ccccc1)N/N=C/c1ccc([N+](=O)[O-])cc1
→ . | . | 106 | -0.3 | 15 | 107 | 7
> CCCCN(C)CCCNC(=O)c1cc(=O)[nH]c2ccc(S(=O)(=O)N3CCCCC3C)cc12 (stereo unspecified)
→ i | 0.94 | 99 | . | 29 | 87 | -3
> O=c1cc(CN2CCOCC2)c2c(ccc3ccccc32)o1
→ i | 0.74 | 101 | 1.1 | -33 | 102 | -2

# Remaining list, next part
SMILES,HSV augment,HSV augment primary fold,RGS16-Gao HTS,GALR2 ag,Insulin prom inh,Insulin prom inh cell count,PKD1 kinase inh
Cc1ccc2c(c1)NC(C(C)(C)C)CO2 (stereo unspecified),i,0.84,101,-1.0,-44,50,8
C/C(=N\Nc1ccc(C(=O)O)cc1)c1ccc(-n2ccnc2)cc1,i,1,100,.,.,.,-1
COc1cccc(OC)c1CNC(=O)CCSCc1ccccc1F,i,0.88,102,.,-67,127,-10
COc1ccc(CCNc2nc3ccccc3n3cnnc23)cc1OC,i,0.97,99,.,.,.,.
CSc1ncccc1C(=O)OCC(=O)NC(N)=O,i,0.95,102,-4.1,16,78,-3
NC(=O)CSc1nc(N)c2c3c(sc2n1)CCCCC3,i,1,99,-0.9,35,93,2
O=S(=O)(Cc1ccccc1)N1CCN(Cc2ccc3c(c2)OCO3)CC1,i,0.87,105,-1.4,-68,75,-1
CCNc1nc(Cl)nc(NCc2ccccc2)n1,i,1.1,95,-0.5,-6,91,5
Clc1ccc(-c2csc(N3CCOCC3)n2)cc1,i,1.1,91,.,73*,114*,5
COC(=O)c1nc(NC(=O)c2ccccc2Br)n[nH]1,i,0.95,102,.,.,.,0
COc1ccc(C(c2nnnn2Cc2ccccc2)N2CCN(C(=O)c3ccco3)CC2)cc1OC (stereo unspecified),i,0.94,106,-0.5,.,.,-1
COc1ccccc1N1CCN(C(=S)NC(=O)/C=C/c2ccccc2)CC1,i,0.9,103,.,.,.,.
CC1=Nc2ccccc2/C1=C\c1nc(-c2ccccc2)oc1O,i,1,108,-3.7,.,.,-4
CN(c1ccccc1)S(=O)(=O)c1cccc(NC(=O)c2ccncc2)c1,i,0.98,97,.,.,.,.
CCOC(=O)C1CCCN(C(=O)CCNS(=O)(=O)c2ccc3c(c2)CCC(=O)N3)C1 (stereo unspecified),i,0.86,115,-4.4,.,.,-1
COc1ccc(N2C(=O)/C(=C\c3ccco3)N=C2SCC(N)=O)cc1Cl,i,1,69,.,92*,75*,4
COc1ccc(C(=O)NC2CCCc3ccccc32)cc1S(=O)(=O)N1CCOCC1 (stereo unspecified),i,1.1,105,.,11,142,-2
COCCN(C(=O)c1csnn1)C(C(=O)NC1CCCCC1)c1sccc1C (stereo unspecified),i,0.87,100,-0.9,-57,94,-1
NS(=O)(=O)c1ccc(O)c(NC(=O)c2ccc([N+](=O)[O-])o2)c1,i,1,102,.,.,.,.
CCOC(=O)COn1c(=O)c[n+]([O-])c2ccccc21,i,1.1,99,-1.6,100*,24*,2
Cc1cccc(N(C(=O)CS(=O)CC(=O)Nc2ccc3c(c2)OCO3)C(C)C(=O)NC2CCCC2)c1C (stereo unspecified),i,0.99,101,.,.,.,.
CC(C)CCN1CCN(Cc2ccc(Sc3nncn3C)o2)CC1CCO (stereo unspecified),i,1,109,.,7,103,-1
OCCC#Cc1ccc(CN2CCN(C3CCCCC3)C(CCO)C2)cc1 (stereo unspecified),i,1.3,96,.,.,.,5

# High-throughput results deposited in PubChem BioAssay by several laboratories.
